Mtb hypoxia inh = PubChem AID 1159583 | M. tuberculosis hypoxia-regulated fluorescent reporter, fluorescence | fluorescence inhibition, % (concentration not given with the values) | 0.1% of 300,000 active;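 active means 35 to 45% if threefold the growth effect, above 45% if 1.5-fold the growth effect; inactive means the rest, general growth blockers included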;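 further: wells of about 50 µL received 100 nL stock; 0% = vehicle wells and 100% = reference inhibitor wells; whole bacteria with a GFP reporter of the hypoxia response; strong numbers were not always called active; many hits fall short of the cut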
PrP UTR inh = inhibition of PrP 5' UTR reporter expression | inhibition, % (concentration not given with the values) | cell-based PrP 5' UTR mRNA reporter, plate reader | 0.35% of 340,000 active;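 active means every replicate at 50% or more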;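 further: 0 = median of the neutral control wells; tested in H4 reporter cells; numbers are from one replicate; inactives centre near -14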
RN4220 kill = growth inhibition of S. aureus RN4220, primary screen, OD600. inhibition, % (test concentration not listed). 16 h. AID 1259311, 2017. 0.33% of 330,000 active;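 active means z-score of -3 or lower and OD600 up to 0.18 on both plates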;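 further: plate controls were untreated cells for no effect and reference antibiotic for full effect; stock transfer was 100 nL into about 80 µL; one replicate is shown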
BJeLR viability = MLPCN primary cell-based screen for lethality selective to Ras in HRASV12 cells; AID 1554, 2009; BJeLR (HRASV12) viability, CellTiter-Glo ATP luminescence, 48 h; reference of the scale not given here; 0.17% of 300,000 active; inhibition, % (no concentration beside the values);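 active means replicate mean above 50%; inconclusive means above 50% but judged a plate artefact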;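 further: 50 nL library stock added to about 25 µL; numbers are from one replicate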
ugtP null kill = growth inhibition of ugtP-null S. aureus, primary screen, RN4220 ugtP deletion, OD600. growth inhibition, % (no concentration beside the values). 0.54% of 330,000 active. 16 h; some inactives read as strong as hits;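 active means z-score under -3 and OD600 up to 0.15 on both plates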;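 further: plate controls were untreated wells for no effect and antibiotic for full effect; wells of about 80 µL received 100 nL stock; the first replicate is given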
Bead autofluor = flagged as autofluorescent in microsphere protease counterscreen; AID 624483; fluorescence intensity (test concentration not listed); 3.1% of 360,000 active; compound autofluorescence counterscreen, microsphere flow cytometry; hits give high values;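 active means at least 3 SD above the mean of all compounds, about 16000 in these data; inconclusive means too few beads counted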;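 further: 100 nL of 1 mM stock went into each well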
Mtb hypoxia inh growth = further read-out of Mtb hypoxia inh, marked with its call; growth inhibition, %; measured here: M. tuberculosis growth (absorbance);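 0% = vehicle and 100% = reference antibiotic; read after six days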
* = called active by the depositor; ? = inconclusive; . = not tested or not shown.

SMILES	Mtb hypoxia inh	Mtb hypoxia inh growth	PrP UTR inh	RN4220 kill	BJeLR viability	ugtP null kill	Bead autofluor
COc1ccc(NC(=O)CCSCCc2ccccn2)cc1OC	1	0	-5	2.0	-1	3	4427
Cc1ccc(S(=O)(=O)NCCCNC(=O)c2ccccc2)cc1	5	13	-25	2.4	1	-2	23361*
CCOC(=O)C1CSC(CC(=O)Nc2ccc(Cl)cc2)C(=O)N1 (stereo not given)	2	-8	1	-0.8	4	-4	6881
COc1cc(C(N)=O)cc(Br)c1OC	3	1	6	-11	4	-1	2950
CNC(=S)N1N=C(c2ccc(OC)cc2)CC1c1ccc(N(C)C)cc1 (stereo not given)	4	-7	-27	2.1	9	13	2912
Cn1cccc1Cc1nnc(SCC(=O)Nc2cccc(F)c2)n1CCc1ccccc1	.	.	10	6.0	7	8	4594
Cc1ccc(Cn2c(=N)c(S(=O)(=O)c3ccc(Br)cc3)cc3c(=O)n4ccccc4nc32)cc1	-1	2	-29	1.9	6	-2	5672
CC1Cc2ccccc2C(=O)N1 (stereo not given)	.	.	-31	-0.4	-4	-5	2470
COc1ccc(S(=O)(=O)N(C)CC(=O)N2CCC(C(N)=O)CC2)cc1	7	-2	-9	1.0	-9	4	11113
Cc1cnc(C(=O)Nc2cc(S(=O)(=O)N3CCOCC3)ccc2N2CCN(C)CC2)cn1	-4	6	-28	2.5	-3	7	1942
CCOc1ccc(OCCC(=O)OCC(=O)Nc2cccc(S(=O)(=O)N3CCCCC3)c2)cc1	-13	-9	17	2.2	.	0	3021
CCOC(=O)c1c(C)n(C)c2ccc(OC(=O)c3ccoc3)cc12	6	8	-10	2.3	-3	9	5470
O=C(O)Cc1csc(-c2cccc(F)c2)n1	11	4	-24	7.3	13	1	4854
CC(=O)Nc1nc(SCC(=O)NCc2ccc(F)cc2)[nH]c(=O)c1NC(=O)c1cccs1	3	2	-16	7.1	1	-6	1973
CCOc1ccc(-n2c(C)cc(C=NN(C)C)c2C)cc1	-12	-5	.	6.2	.	23	.

An excerpt of these results, field by field.
CC(=O)Nc1nc(SCC(=O)NCc2ccc(F)cc2)[nH]c(=O)c1NC(=O)c1cccs1
- Mtb hypoxia inh: 3
- Mtb hypoxia inh growth: 2
- PrP UTR inh: -16
- RN4220 kill: 7.1
- BJeLR viability: 1
- ugtP null kill: -6
- Bead autofluor: 1973

CNC(=S)N1N=C(c2ccc(OC)cc2)CC1c1ccc(N(C)C)cc1 (stereo not given)
- Mtb hypoxia inh: 4
- Mtb hypoxia inh growth: -7
- PrP UTR inh: -27
- RN4220 kill: 2.1
- BJeLR viability: 9
- ugtP null kill: 13
- Bead autofluor: 2912

Cc1ccc(Cn2c(=N)c(S(=O)(=O)c3ccc(Br)cc3)cc3c(=O)n4ccccc4nc32)cc1
- Mtb hypoxia inh: -1
- Mtb hypoxia inh growth: 2
- PrP UTR inh: -29
- RN4220 kill: 1.9
- BJeLR viability: 6
- ugtP null kill: -2
- Bead autofluor: 5672

CCOC(=O)c1c(C)n(C)c2ccc(OC(=O)c3ccoc3)cc12
- Mtb hypoxia inh: 6
- Mtb hypoxia inh growth: 8
- PrP UTR inh: -10
- RN4220 kill: 2.3
- BJeLR viability: -3
- ugtP null kill: 9
- Bead autofluor: 5470

(listing goes on)
SMILES	Mtb hypoxia inh	Mtb hypoxia inh growth	PrP UTR inh	RN4220 kill	BJeLR viability	ugtP null kill	Bead autofluor
CCCCn1c(=O)[nH]c(=O)c2c1nc(-c1ccc(OC(F)F)c(OC)c1)n2C	1	3	9	0.6	5	5	5569
COc1ccccc1OCC(=O)OCn1c(SC)nnc(C)c1=O	.	.	-23	4.7	1	-2	2336
Cc1ccc(C(=O)N/N=C/c2ccc(-c3ccc(Br)cc3[N+](=O)[O-])o2)o1	.	.	-16	.	-3	.	5141
CCOC(=O)Nc1cc(C)ccc1OC	4	1	-2	3.7	-19	6	8768
CC1CCN(C(=S)c2cn(Cc3cccc(F)c3)c3ccccc23)CC1	-2	8	-14	-5.7	-6	9	2388
CSc1nnc(CCNS(=O)(=O)c2ccc(Br)cc2)n1C	4	9	-36	0.8	-4	7	5930
Nc1cc(N2CCCCCC2)c2nonc2c1[N+](=O)[O-]	7	-1	-7	1.5	-1	2	3718
COc1ccccc1N/C(=N/S(=O)(=O)c1ccc(C)cc1)c1ccc(Cl)cc1	-5	5	-2	1.3	6	5	11550
Cc1c(Cl)cccc1NC(=S)N(CCN(C)C)C(C)c1ccco1 (stereo not given)	6	1	-4	-0.8	1	-5	3695
COc1cccc(C(c2cccc(OC)c2)c2ccccc2C(=O)O)c1	7	3	-23	14	.	-9	2985
Cc1ccc(-n2ncc3c2CCCC3NC(=O)c2ocnc2C)cc1C (stereo not given)	5	0	-3	3.8	20	6	4332
NC(=O)c1cccc(N=Cc2cc(Cl)cc(Cl)c2O)c1	0	-2	-26	7.4	3	12	4522
Cc1cc(OCC(=O)OCC(=O)NCc2ccc3c(c2)OCO3)ccc1Cl	-2	3	-14	4.2	.	1	?
COc1ccc(OCC(=O)N/N=C(\C)c2cccs2)cc1	.	.	-9	.	-6	.	5018
O=C(COC(=O)CCSc1ccccc1)Nc1ccccc1Br	10	0	-17	4.0	.	6	3999

Results in PrP UTR inh (2 entries from above):
| Compound | PrP UTR inh |
| --- | --- |
| CCCCn1c(=O)[nH]c(=O)c2c1nc(-c1ccc(OC(F)F)c(OC)c1)n2C | 9 |
| COc1ccccc1OCC(=O)OCn1c(SC)nnc(C)c1=O | -23 |

Next structures follow.
SMILES	Mtb hypoxia inh	Mtb hypoxia inh growth	PrP UTR inh	RN4220 kill	BJeLR viability	ugtP null kill	Bead autofluor
Cc1nnc(SCCCCSc2nnc(C)c(=O)[nH]2)[nH]c1=O	-9	-1	-8	5.3	1	11	3447
CC(C)C(NC(=O)CNC(=O)OC(C)(C)C)C(=O)NCc1ccc(Cl)cc1 (stereo not given)	4	4	-23	3.5	1	0	1995
O=C(Nc1ccc(OC(F)(F)F)cc1)c1cnc2n(c1=O)CCS2	15	8	-55	5.5	5	10	5207
COc1ccc(N=C2S/C(=C\c3ccc(C)s3)C(=O)N2CC(C)C)cc1	.	.	-20	.	2	.	2955
COc1cc(S(=O)(=O)Nc2ncccc2C)c(OC)cc1Cl	.	.	10	8.4	2	3	3728
OC[C@H]1OC(O)[C@H](O)[C@@H](O)[C@H]1O (stereo not given in full)	.	.	2	.	-6	.	5538
COCc1nc2ccccc2n1Cc1ccccc1Br	6	5	-16	6.7	0	3	20394*
CC(=NNC(=O)c1ccc(N(C)C)cc1)c1cccnc1	4	5	.	3.9	.	5	.
O=C(CNC(=O)c1ccco1)NCC(=O)OCc1ccc(Cl)cc1	.	.	-8	-0.1	5	3	3519
O=C(O)CCSc1nnnn1-c1ccccc1	8	-2	-9	1.7	-5	10	2539
COc1cc(S(=O)(=O)Nc2cccnc2)ccc1F	.	.	-5	4.5	3	0	3503
O=C(CNS(=O)(=O)c1ccccc1F)NNC(=O)c1ccc(Br)cc1	7	-1	0	3.0	.	5	4914
CC(=O)N1CCc2cc(S(=O)(=O)NCC(=O)NCc3ccccc3Cl)ccc21	-6	4	0	2.6	8	7	5834
CCOC(=O)C1=C(COC(=O)CCc2ccccc2)NC(=O)NC1C (stereo not given)	8	0	-28	5.8	.	9	4018
Cc1ccc2c(CN3CCCCC3)cc(=O)oc2c1C	5	1	-35	1.2	2	5	4076
O=C(C1CCCCC1)N1CCN(c2ccccc2F)CC1	16	11	-26	4.1	-6	7	3952
COc1ccc(N(CC(=O)NC2CCCCC2)C(=O)CCC(=O)Nc2nc(C)cs2)cc1OC	-6	-1	-19	-0.7	4	-1	3755
Cc1ccc(Nc2c(-c3ccc(C)o3)nc3ncccn23)cc1	-3	-10	-5	3.4	5	5	4217
CCOc1nc(N2CCCCC2)nc(-n2cc(-c3ccccc3)nn2)n1	.	.	-6	5.6	7	-18	3180
CCOC(=O)c1cc(C#N)c(N2CCCCC2)nc1-c1ccccc1	.	.	-13	3.5	2	10	2820
N#Cc1c(NC(=O)c2cc(C3CC3)on2)sc2c1CCC2	-3	7	-18	25	3	-4	4136
S=C(NCCc1ccccc1)Nc1c(Cl)cccc1Cl	9	13	-8	3.8	-8	10	4178
Cc1cc(NC(=O)CCC(=O)N(c2ccc(F)cc2)C(C(=O)NC2CCCC2)c2ccc(C)o2)no1 (stereo not given)	2	-4	-26	-0.6	-4	-3	2558
CCN(CCCNC(=O)CCc1nc(-c2ccc(C)cc2)no1)c1cccc(C)c1	.	.	-4	2.5	-9	-1	2192
COc1ccc(N2CCN(CC(=O)Nc3cccc(S(=O)(=O)N4CCOCC4)c3)CC2)cc1	12	-2	-15	2.2	3	12	7773
O=C1CC(SCc2nc3ccccc3[nH]2)C(=O)N1c1cccc(F)c1 (stereo not given)	.	.	-26	.	1	.	11134
S=C(NCc1ccccc1)NC1CCCc2ccccc21 (stereo not given)	5	2	-25	-2.1	-7	2	4499
Cc1cccc(/C=N/c2sc3c(c2C(=O)OC(C)(C)C)CCN(C)C3)c1O	.	.	-15	.	8	.	2693
N#C/C(=C\c1cccnc1)C(=O)Nc1ccc(O)cc1F	4	0	-19	-2.5	-3	3	3710
O=C(COc1ccccc1C(=O)NCC1CCCO1)Nc1ccc(Cl)cc1Cl (stereo not given)	6	11	1	-2.9	3	7	4443
Cc1ccc(-c2nnc3n2CCCCC3)cc1	.	.	-27	3.1	-2	5	2297
CCCCCCC(C)n1[nH]c(=O)c2c(C)cc(=O)[nH]c21 (stereo not given)	.	.	-7	.	0	.	5059
CCn1ccnc1C(O)c1cccc2ccccc12 (stereo not given)	3	1	11	4.9	7	3	3884
O=C(O)c1ccc(Cn2cnc3sc4c(c3c2=O)CCCC4)cc1	3	1	-4	9.1	-1	7	2399
COCC(=O)N=Nc1c(O)[nH]c2ccccc12	15	6	-23	8.8	-1	-2	2152
COc1ccc(NC(=O)C2C(=O)N(C)C3(C)CC2c2ccccc2O3)cc1 (stereo not given)	5	10	-12	-1.4	-3	-2	3301
COc1cc(C(=O)ON=C2C=CC(=O)C=C2C)cc(OC)c1OC	4	6	.	0.0	.	1	.
Cc1ccc(COn2c(-c3ccc(Cl)cc3)nc3ccc([N+](=O)[O-])cc32)cc1	-3	4	-86	-5.3	2	-8	4264
Cc1ccc(S(=O)(=O)N2CCC(C(=O)NNC(=O)c3ccc(F)cc3)CC2)cc1	5	0	-26	3.3	-1	3	4206
O=C(Nc1ccc2c(c1)OCCO2)c1coc2ccccc2c1=O	9	9	-34	5.9	0	11	2188
CCCS(=O)(=O)Nc1ccc2cn[nH]c2c1	5	10	-8	5.4	-1	1	4405
S=C(c1ccc(-c2ccccc2Cl)o1)N1CCOCC1	2	10	-53	12	-3	0	4366
CCCCCC(O)CCC(=O)NNC1=CC(=O)CC(C)(C)C1 (stereo not given)	-10	-4	17	2.1	-17	5	4932
CC(C)(C)c1ccc(NC(=S)NCc2cccs2)cc1	23	20	-31	1.1	-9	-2	2459
COc1ccc(C(=O)CSc2nccc(=O)[nH]2)cc1	.	.	5	-0.8	0	0	2791
CCOC(=O)c1oc2ccccc2c1CN1CC(C)OC(C)C1 (stereo not given)	12	3	-25	3.1	-7	2	6122
Cc1ccccc1C(=O)Nc1nnc(CC(=O)NN=Cc2cn(Cc3ccccc3)c3ccccc23)s1	5	15	.	13	.	4	.
COc1ccc(C(=O)NCCSc2ccccn2)cc1	.	.	-47	-1.7	1	3	2820
O=C(CNc1cccc2ccccc12)NN=Cc1ccc([N+](=O)[O-])cc1	14	2	.	1.1	.	12	.
Cc1ccc(C(=O)N2CCCCCC2)cc1S(=O)(=O)N1CCOCC1	3	-1	-14	3.8	-1	4	5361

Six entries already listed, ordered by formula weight, smallest number first.
SMILES	Mtb hypoxia inh	Mtb hypoxia inh growth	PrP UTR inh	RN4220 kill	BJeLR viability	ugtP null kill	Bead autofluor
COc1ccc(C(=O)CSc2nccc(=O)[nH]2)cc1	.	.	5	-0.8	0	0	2791
COc1ccc(C(=O)NCCSc2ccccn2)cc1	.	.	-47	-1.7	1	3	2820
S=C(c1ccc(-c2ccccc2Cl)o1)N1CCOCC1	2	10	-53	12	-3	0	4366
CCCCCC(O)CCC(=O)NNC1=CC(=O)CC(C)(C)C1 (stereo not given)	-10	-4	17	2.1	-17	5	4932
Cc1ccc(C(=O)N2CCCCCC2)cc1S(=O)(=O)N1CCOCC1	3	-1	-14	3.8	-1	4	5361
Cc1ccccc1C(=O)Nc1nnc(CC(=O)NN=Cc2cn(Cc3ccccc3)c3ccccc23)s1	5	15	.	13	.	4	.

Source: PubChem BioAssay (several laboratories)

Compounds as they come; about 4% have a hit in one of these screens.
